From PubChem BioAssay
TRPML1 agonist – qHTS for Agonists of the Human Mucolipin Transient Receptor Potential 1 (TRPML1). Mucolipin-1 (Homo sapiens), Q9GZU1. TRPML1-expressing cells, Ca2+ dye fluorescence, FDSS; host cell line not named in the record; reference of the full effect not given here. activation, % (no concentration beside the values). 0.12% of 410,000 active; in the data active = activation above about 50%; inconclusive = about 30% to 50%; inactive = below about 30%; further: 0% is about no effect; the text of the record puts the active cut at 80%
Target sequence (Q9GZU1 whole entry, looked up): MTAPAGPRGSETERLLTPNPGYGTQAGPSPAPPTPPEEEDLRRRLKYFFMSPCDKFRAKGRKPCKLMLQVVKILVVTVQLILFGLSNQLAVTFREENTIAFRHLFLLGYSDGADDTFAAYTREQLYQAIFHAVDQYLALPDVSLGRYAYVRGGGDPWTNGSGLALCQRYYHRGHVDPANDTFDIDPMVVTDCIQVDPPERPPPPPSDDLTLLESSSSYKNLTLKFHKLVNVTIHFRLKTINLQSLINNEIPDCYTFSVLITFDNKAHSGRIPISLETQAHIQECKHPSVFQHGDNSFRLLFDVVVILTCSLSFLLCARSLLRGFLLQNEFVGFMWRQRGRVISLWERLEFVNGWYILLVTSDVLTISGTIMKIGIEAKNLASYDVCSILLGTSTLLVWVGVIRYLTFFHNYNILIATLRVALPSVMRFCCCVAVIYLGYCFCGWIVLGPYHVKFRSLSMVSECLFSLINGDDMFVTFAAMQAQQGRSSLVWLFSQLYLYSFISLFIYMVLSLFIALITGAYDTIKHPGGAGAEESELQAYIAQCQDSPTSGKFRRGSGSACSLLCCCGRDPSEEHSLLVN
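Tet-induced TRPML1-DL cells, 1,500 per well, cultured overnight, were loaded with a no-wash Ca2+ dye for 45–90 min. Calcium fluorescence was recorded on the FDSS for 110 s after compound addition, before the EC80 agonist (4 uM 54-4) was added.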
TRPML1 blocker – qHTS for Inhibitors of the Human Mucolipin Transient Receptor Potential 1 (TRPML1) | Mucolipin-1 (Homo sapiens), Q9GZU1 | TRPML1-inducible cells, Ca2+ dye fluorescence, FDSS; stronger effect = lower value; inhibition of EC80 agonist-evoked calcium signal | activity change, negative = inhibition, % (concentration not given with the values) | 0.02% of 390,000 active; in the data active means activity change below about -50%; inconclusive means about -30% to -50%; inactive means above about -30%;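 further: stimulus is agonist 54-4 at its EC80 concentration; on the % scale 0 is the no-effect control and ±100 the full control effect; compound concentration not given in the record; the text of the record puts the active cut at -80%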
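TRPML1-DL cells, Tet-induced overnight (~16 h, 37 °C) at 1,500 cells/well, were loaded with Ca8 no-wash dye plus quencher for 45-90 min at room temperature. Compounds were pinned during FDSS kinetic reading; agonist 54-4 at EC80 (4 uM final) then added.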
CtBP-E1A blk – qHTS Assay for Inhibitors of the CtBP/E1A Interaction. CtBP / adenovirus E1A interaction (AlphaScreen). AlphaScreen GST-E1A/His-CtBP binding, 1536-well; stronger effect = lower value; control for the full effect not named in the record. activity change, % (no concentration beside the values). 0.49% of 340,000 active. AID 651724, 2012; in the data active means activity change below about -65%; inconclusive means about -30% to -65%; inactive means above about -30%; further: on the % scale 0 is the no-effect control and ±100 the full control effect; compound concentration not given in the record
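In 5 uL wells, 23 nL compound meets equimolar GST-E1A and His-CtBP (5X stock 125 nM each) for 2 h, 37 °C. Beads (5X, 50 ug/mL) then 1 h, 37 °C, dark.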
PINK1 expr mod – A Quantitative High throughput Screen to Identify Chemical Modulators of PINK1 Expression; 0.2% of 410,000 active; AID 624263, 2012; Potency, µM (top dose mostly 76.6 µM), inactives show at the highest dose activation (PINK1 increase), most hits filed as activators; PINK1 immunofluorescence, high-content cytometry, 24 h; active = well fitted activation curve with a large enough effect; inconclusive = small, poorly fitted or top-dose-only effect; inactive = flat fitted curve, though single readings scatter; cell line not stated here;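 further: potency means the concentration at half of the fitted maximal effect; % of control where 0% means no effect; nearly all actives have a fitted effect of over 65% in size; a mitochondrial uncoupler was the plate control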
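Compound titrations (5 concentrations, 24 h) on a stable cell line; DMSO and CCCP controls. Endpoint: fixed-cell PINK1 immunofluorescence with mitochondrial, cell and nuclear markers, scanned by microplate cytometer.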
Six1-Eya2 blk – qHTS Assay for Inhibitors of the Six1/Eya2 Interaction | AlphaScreen GST-Six1/His-Eya2 binding, biochemical; stronger effect = lower value; control for the full effect not named in the record | Homeobox protein SIX1 (Homo sapiens) + Protein phosphatase EYA2 (Homo sapiens), … | activity change, % (concentration not given with the values) | 0.56% of 360,000 active; in the data active = activity change below about -65%; inconclusive = about -30% to -65%; inactive = above about -30%; further: on the % scale 0 is the no-effect control and ±100 the full control effect
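GST-Six1 + His-Eya2 (5X stock: 250/500 nM); Tris pH 8.0, 300 mM NaCl, 0.05% BSA, 0.02% Tween 20; GSH donor/Ni acceptor beads; 1 h 37 °C dark; AlphaScreen readout.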
D2 ag – Beta-Arrestin HTS for Positive Allosteric Modulators of the Human D2 Dopamine Receptor: Agonists | 0.084% of 360,000 active | D(2) dopamine receptor (Homo sapiens), P14416 | activation, % (test concentration not listed) | DiscoveRx PathHunter D2 beta-arrestin, luminescence, 90 min; 100% = 57 uM dopamine signal; in the data active = activation above about 40%; inconclusive = about 15% to 40%; inactive = below about 15%; further: compound concentration not given in the record; the text of the record calls up to 30% inactive
Target sequence (P14416 whole entry, looked up): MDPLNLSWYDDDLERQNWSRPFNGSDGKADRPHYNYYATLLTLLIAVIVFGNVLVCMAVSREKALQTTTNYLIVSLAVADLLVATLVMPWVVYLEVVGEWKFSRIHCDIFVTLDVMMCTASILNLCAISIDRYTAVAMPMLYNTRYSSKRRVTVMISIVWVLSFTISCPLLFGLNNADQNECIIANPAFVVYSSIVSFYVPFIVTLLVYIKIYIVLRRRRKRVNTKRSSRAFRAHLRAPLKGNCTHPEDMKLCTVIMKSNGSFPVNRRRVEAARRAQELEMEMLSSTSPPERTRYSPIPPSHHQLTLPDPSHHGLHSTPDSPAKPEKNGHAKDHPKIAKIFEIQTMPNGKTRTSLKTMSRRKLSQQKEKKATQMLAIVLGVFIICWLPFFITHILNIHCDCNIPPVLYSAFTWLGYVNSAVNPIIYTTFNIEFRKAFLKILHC
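Agonist mode: compounds alone added to overnight-plated D2 PathHunter cells for 90 min at 37 C, with 57 uM final dopamine (EC100) defining full response. Beta-arrestin recruitment detected by chemiluminescent reagent, read after 1 h at ambient temperature.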
Active calls of the source: *; u = inconclusive; x = no result given; & = joins results of further samples; [ ] = another dose, or the depositor's remark.

mol	D2 ag	PINK1 expr mod	TRPML1 blocker	TRPML1 agonist	Six1-Eya2 blk	CtBP-E1A blk
COC(=O)c1ccc(CN(C(=O)N2CCN(C)CC2)S(=O)(=O)c2ccc(C)cc2)cc1	-4.2	0.5%	3.4	0.5	7.9	-11.8
CCOc1cc(C(c2c(C)[nH][nH]c2=O)c2c(C)[nH][nH]c2=O)cc(Br)c1OC	-2.6	-0.8%	-4.5	0.0	-5.8	-8.2
COc1ccc2[nH]c(C)c(CCN(Cc3cccs3)C(=S)Nc3ccc(F)cc3)c2c1	4.4	3.0%	13.3	1.8	-19.9	-0.6
CCOc1ccccc1NC(=O)C1CCCN(S(=O)(=O)c2cccc3nsnc23)C1 (stereo unspecified)	-1.9	0.4%	-11.1	-0.3	-0.4	-2.9
COc1ccc(N(CC(=O)NCCSc2ccccn2)S(C)(=O)=O)cc1Cl	-0.4	-1.2%	2.4	-0.9	3.1	4.7
COc1ccc(N2CCN(C(=O)c3ccc(CS(=O)Cc4ccc(C)cc4)o3)CC2)cc1 (stereo unspecified)	1.3	-0.2%	-5.1	-0.7	-1.6	-1.7
COC(=O)c1[nH]c2ccc(C)cc2c1NS(=O)(=O)c1ccc(F)cc1	-0.6	2.2%	-7.1	0.3	1.1	3.9
Cc1ccccc1C1N(c2nccs2)C(=O)C2CCCN21 (stereo unspecified)	2.6	1.1%	-7.9	-0.4	-1.2	1.9
Cc1ccc(S(=O)(=O)N2CCOCC2)cc1NC(=O)c1cc([N+](=O)[O-])ccc1N1CCOCC1	-3.8	-2.1%	-25.9	-0.3	-0.1	1.8
CCOC(=O)CNC(=O)c1nn(-c2cccc(OC)c2)c(=O)c2ccccc12	2.4	-1.5%	0.4	-0.8	0.8	12.8
Cc1nc2ccc(NC(=O)c3ccc(C)c(S(=O)(=O)N4CCOCC4)c3)cc2s1	2.9	2.3%	-16.5	1.0	u	u
CCN1C(=O)[C@H]2[C@H]3CN=C(SCc4ccc(OC)cc4)N3[C@@](CC)(C(=O)OC)[C@H]2C1=O	0.1	-1.0%	-10.3	1.1	5.6	4.2
O=C(c1ccccc1)C1CCN(C(=O)c2c(F)cccc2F)CC1	7.9	0.4%	42.6	0.5	0.5	1.7
COc1ccc(-c2[nH]c3ccccc3c2SCCNC(=O)c2cc3ccccc3oc2=O)cc1	0.5	-0.5%	-9.0	0.3	-22.6	u
COc1ccc(C)cc1S(=O)(=O)N1CCCC(C(=O)NCC2CCCO2)C1 (stereo unspecified)	0.1	x	-12.5	0.3	4.0	3.6
COc1ccccc1NC(=O)N1CCN(c2ncccn2)CC1	-1.4	1.2%	12.5	-0.5	-0.8	6.6
CC(=O)c1ccc(S(=O)(=O)Nc2ccc(C(=O)NCC(c3ccccc3)N(C)C)cc2)cc1 (stereo unspecified)	-0.9	0.1%	3.1	-1.1	7.3	-16.3
O=C(NCc1ccccc1)c1cc(C2CCCCN2S(=O)(=O)c2ccccc2)on1 (stereo unspecified)	-0.7	1.8%	12.4	1.6	-1.2	7.2
COc1ccc(NC(=O)CN2C(=O)CSc3ccc(S(=O)(=O)N(C)C)cc32)cc1Cl	x	1.2%	-1.2	-0.9	x	x
Cc1noc(C(C)C)c1C(=O)Nc1ccc(-c2nnc3n2CCCCC3)cc1	-1.5	-1.0%	-16.2	0.2	2.6	7.8
O=[N+]([O-])c1ccc(NS(=O)(=O)c2ccccc2)c(Cl)c1	-6.7	39.8µM*	0.6	-0.2	-1.8	2.9
CCCCN(C(=O)C1CCCC1)c1c(N)n(Cc2ccccc2)c(=O)[nH]c1=O	2.9	3.8%	0.1	-0.5	5.3	1.5
CC(C)C(OC(=O)CCCC(=O)Nc1nccs1)C(=O)NC1CCCCC1 (stereo unspecified)	-2.7	0.1%	13.5	3.3	-3.9	x
CCC(C(=O)Oc1c(C(C)C)cccc1C(C)C)c1ccccc1 (stereo unspecified)	-1.8	14.5%	18.2	-0.2	20.1	15.4
CN(Cc1cccc(Cl)c1Cl)C(=O)CCNC(=O)c1ccco1	-0.7	-0.5%	-16.1	-0.3	-2.4	1.1
COc1ccc(C(=O)N2CCCCC2C(=O)Nc2ccc(-n3nc(C)cc3C)cc2)o1 (stereo unspecified)	-0.1	1.1%	-22.6	0.8	-2.6	-2.7
CCCCCCSc1ccc(-c2nc3ccc(C)cn3c2NCc2ccccc2)cc1	-1.8	3.0%&4.5%	-11.2	1.0&0.4	1.4&-1.0	8.2&0.1
COc1ccc(C#Cc2ccc3c(c2)O[C@H](CN(C)S(=O)(=O)c2ccccc2F)[C@H](C)CN([C@H](C)CO)S3(=O)=O)cc1	-3.9	4.6%	16.7	3.2	-3.3	-13.9
Cc1ccc(S(=O)(=O)NCCC(=O)OCc2ccc([N+](=O)[O-])cc2)cc1C	2.1	0.3%	-1.7	1.4	-0.6	-0.8
CCCCOc1ccc(/C=C(\C#N)C(=O)NC2CC2)cc1	4.6	2.6%	-17.8	0.1	-4.5	-0.7
Cc1nc(Nc2nc(-c3ccccc3)cc(=O)[nH]2)nc2ccccc12	-3.4	1.4%	-12.8	0.7	-29.1	-10.6
Cc1ccc(S(=O)(=O)N(CC(=O)Nc2cccc([N+](=O)[O-])c2)C(=O)N2CCN(C)CC2)cc1	-0.6	5.1%	8.0	-0.1	4.8	-6.8
CCOC(=O)COc1ccc([N+](=O)[O-])cc1-c1ccnc2cc(-c3ccc(Cl)cc3)nn12	x	1.0%	-19.9	-0.3	x	x
CC(C)OC(=O)CSc1nnc(-c2ccncc2)n1N	-1.6	1.6%	6.6	0.2	-0.6	4.8
O=c1c(-c2nnc(SCc3ccc(Cl)cc3)o2)cccn1Cc1ccccc1	-4.1	15.3%[38.3 µM]	2.8	-0.5	18.3	23.9
CCCN1CCN(c2ncnc3sc(C(=O)Nc4c(C)cc(C)cc4C)c(C)c23)CC1	x	0.7%	8.3	-0.8	x	x
COc1ccc(C(N)c2csc(Nc3ccc(C(F)(F)F)cn3)n2)cc1 (stereo unspecified)	-7.0	-1.6%	-3.3	-0.5	-8.6	u
CC1(C)C/C(=N\NC(=S)Nc2ccccc2F)c2cc(O)ccc2O1	-2.8	0.9%	6.3	0.2	-13.9	-16.3
Cc1cccnc1NC(=O)COc1ccc2oc3c(c2c1)CCCC3	1.4	-0.6%	11.0	1.7	-2.5	-7.7
O=C(Nc1nc2n(n1)C(c1ccccc1)CC(c1ccc(Cl)cc1)N2)c1ccco1 (stereo unspecified)	-0.3	-0.5%	-6.2	6.1	-5.1	1.2

Look-ups from the list:
Reading for `CCCCCCSc1ccc(-c2nc3ccc(C)cn3c2NCc2ccccc2)cc1` in PINK1 expr mod: 3.0%&4.5%
Reading for `CCOC(=O)COc1ccc([N+](=O)[O-])cc1-c1ccnc2cc(-c3ccc(Cl)cc3)nn12` in TRPML1 blocker: -19.9
Reading for `Cc1ccc(S(=O)(=O)NCCC(=O)OCc2ccc([N+](=O)[O-])cc2)cc1C` in TRPML1 blocker: -1.7

Reprinted at random: 2 entries already listed, in no set order.
mol	D2 ag	PINK1 expr mod	TRPML1 blocker	TRPML1 agonist	Six1-Eya2 blk	CtBP-E1A blk
CC(C)OC(=O)CSc1nnc(-c2ccncc2)n1N	-1.6	1.6%	6.6	0.2	-0.6	4.8
Cc1ccc(S(=O)(=O)NCCC(=O)OCc2ccc([N+](=O)[O-])cc2)cc1C	2.1	0.3%	-1.7	1.4	-0.6	-0.8

More entries follow.
mol	D2 ag	PINK1 expr mod	TRPML1 blocker	TRPML1 agonist	Six1-Eya2 blk	CtBP-E1A blk
N/C(=N\O)c1ccc(NC(=O)c2ccc(Br)o2)cc1	-2.6	-3.1%	6.4	0.5	-3.3	-0.1
CN(Cc1ccco1)S(=O)(=O)c1nnc(NC(=O)c2ccccc2Cl)s1	1.3	-0.1%&-0.4%	5.0&5.7	-0.4&0.0	-7.1	1.6
CN1C(=O)c2ccccc2Sc2ccc(NC(=O)COc3ccccc3)cc21	x	4.9%	5.0	3.1	x	x
CC(C)[C@H](NS(=O)(=O)c1ccccc1F)C(=O)NC1CCCCC1	-2.2	0.7%	-14.7	-1.0	10.5	x
Cn1cnc(S(=O)(=O)N2CCN(c3ccccc3)CC2)c1	-2.8	0.1%	-19.5	-0.4	21.9	x
O=C(NCC1CC1)c1ccc(Oc2cc(Cl)cc(Cl)c2)o1	0.1	2.6%	0.3	0.3	-19.6	x
COc1ccc(Cl)cc1NC(=O)CN(C)C(=O)CSc1ccc2c(c1)OCCO2	-0.9	0.3%	6.7	-0.6	-1.4	1.2
CSCCCNC(=S)N1CCc2ccccc2C1	2.2	-0.2%	8.0	0.7	-0.8	5.5
N#Cc1ccc2ccn(CC(=O)NC3CCCCC3)c2c1	-1.6	-2.1%	-21.9	-0.3	6.6	-4.6
C=CCc1ccc(OCCn2cccc2C=O)c(OC)c1	3.3	u	8.0	2.6	7.1	6.1
Cc1cc(=O)oc2cc(OCCCN3C(=O)c4ccccc4C3=O)ccc12	0.9	-1.0%	-3.0	1.6	0.0	0.2
CCOc1cc(C2Nc3ccccc3-c3nnc(SCc4ccccc4)nc3O2)ccc1OC (stereo unspecified)	x	-0.4%	7.0	0.9	x	x
CC1(C)CC(=O)C2=C(C1)Nc1ccccc1S2	u	-0.3%	-13.1	0.6	-4.4	-7.9
CCOC(=O)C1(CCOc2ccccc2)CCN(Cc2ccc(CO)o2)CC1	-5.7	2.9%	-4.7	-0.3	0.2	2.2
Oc1c(C(c2ccccc2F)N2CCN(c3ccccc3F)CC2)sc2nc(-c3ccco3)nn12 (stereo unspecified)	x	2.1%	18.8	5.0	x	x
O=C(c1ccco1)N1CCN(C(=O)c2cnn3c2NC(c2cccs2)CC3C(F)(F)F)CC1 (stereo unspecified)	4.1	20.5%[38.3 µM]	1.6	0.6	3.5	-17.4
O=C(O)c1cc2ccccc2cn1	1.1	-1.1%	-16.4	2.3	-79.9*	-84.2*
O=C(O)CC1NC(=O)N(C2CCCCC2)C1=O (stereo unspecified)	-1.8	-0.5%	-2.9	-0.2	10.6	6.2
COc1ccc(N2CCN(C(=O)c3cc4c(-c5ccccc5F)nn(C)c4s3)CC2)cc1	x	1.1%	13.4	1.2	x	x
Cc1ccc(F)c(NC(=O)CCOc2ccccc2C)c1	1.6	1.4%	20.8	-1.7	11.4	x
O=C(c1ccc(CS(=O)(=O)c2ccccc2)o1)N1CCOCC1	-2.0	3.2%	3.2	-0.3	-2.1	4.3
COc1ccc(OC)c(C2C(C(N)=O)=C(C)Nc3nc(-c4cccc(Cl)c4)nn32)c1 (stereo unspecified)	-3.1	5.9%&2.1%	3.1&-7.2	0.3&-0.5	0.5	-0.2
